gsp agonist: agonists of gsp mutant (McCune-Albright syndrome); Potency, µM (titrated, usually from 76.9 µM), inactives show top-dose activation (cAMP increase), actives largely listed as activators; AID 624287; gsp mutant cells, cAMP HTRF, 30 min; control for the full effect not named in the record; 340,000 tested, 0.13% active; active = well fitted activation curve with a large enough effect; inconclusive = small, poorly fitted or top-dose-only effect, or another doubt; inactive = no such curve, though single readings can be large or run the other way; cell line not stated here;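 further: phosphodiesterase inhibitor Ro 20-1724 added with compounds to block cAMP breakdown; potency means the concentration at half of the fitted maximal effect; nearly all actives have a fitted effect of over 60% in size; about a fifth of the inactives were tested at one dose only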
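Cells in DMEM/10% FBS with G418 were pretreated with compounds in DMSO plus […] (300 uM stock) for 30 min at 37C. cAMP was measured by HTRF (cAMP-d2 plus anti-cAMP antibody-K) after 30 min at room temperature.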
Menin-MLL FL inh: menin-MLL binding inhibition, fluorescein peptide. 290,000 tested, under 10 active. FP activity change, % at 61.4 µM. AID 1766. Fluorescence polarization, fluorescein-MLL peptide displacement from menin; inconclusive = falling polarisation curve, or a change in total fluorescence; inactive = total fluorescence flat and polarisation flat or rising; no compound was filed as active; the % refers to the polarisation; negative = inhibition;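 further: % of control where 0% means no effect; inhibitors lower the polarisation; unlabelled MLL peptide was the positive control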
TRPV1 potentiator: human TRPV1 potentiation; Q8NER1; TRPV1-expressing cells, Fluo-8 calcium influx, capsaicin EC20 potentiation; host cell line not named in the record; control for the full effect not named in the record; potentiation, % at 8.33 µM; 320,000 tested, 0.02% active; AID 540277; active means potentiation above 80%; inconclusive means 30% to 80%; inactive means below 30%; further: 0% is about no effect
Target sequence (Q8NER1 whole entry, looked up): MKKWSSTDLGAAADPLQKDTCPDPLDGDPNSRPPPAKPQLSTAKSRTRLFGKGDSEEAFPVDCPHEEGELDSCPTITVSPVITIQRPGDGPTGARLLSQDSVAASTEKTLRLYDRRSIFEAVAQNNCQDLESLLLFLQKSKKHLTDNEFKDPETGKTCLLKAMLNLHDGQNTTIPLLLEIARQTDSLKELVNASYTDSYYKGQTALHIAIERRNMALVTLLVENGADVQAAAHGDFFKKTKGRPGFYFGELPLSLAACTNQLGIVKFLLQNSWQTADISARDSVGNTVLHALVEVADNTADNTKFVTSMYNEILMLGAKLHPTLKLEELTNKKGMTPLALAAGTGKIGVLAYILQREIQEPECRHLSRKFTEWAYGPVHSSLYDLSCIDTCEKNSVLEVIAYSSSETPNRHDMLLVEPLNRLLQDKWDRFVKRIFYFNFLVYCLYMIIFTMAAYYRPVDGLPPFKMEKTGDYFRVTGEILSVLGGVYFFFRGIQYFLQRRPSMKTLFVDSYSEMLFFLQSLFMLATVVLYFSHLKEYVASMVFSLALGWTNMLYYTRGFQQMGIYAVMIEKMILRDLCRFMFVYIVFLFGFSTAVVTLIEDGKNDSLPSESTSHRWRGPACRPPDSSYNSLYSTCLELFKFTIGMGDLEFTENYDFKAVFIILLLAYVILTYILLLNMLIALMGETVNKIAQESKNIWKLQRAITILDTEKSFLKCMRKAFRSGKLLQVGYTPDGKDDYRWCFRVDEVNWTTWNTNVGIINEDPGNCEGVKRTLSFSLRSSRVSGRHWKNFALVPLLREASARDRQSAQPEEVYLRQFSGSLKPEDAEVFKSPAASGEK
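Cells expressing TRPV1 were dye-loaded with Fluo-8 and read kinetically: 10 s baseline, 3 min after compound (agonist portion), then 2 min after EC20 capsaicin (allosteric enhancer portion). Calcium-bound dye fluorescence at 480/520 nm.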
Sfp PPTase inh: Sfp phosphopantetheinyl transferase inhibition; Biochemical Sfp PPTase activity, qHTS; Potency, µM, without a hit: max response, negative = inhibition, hits mostly inhibitors; 310,000 tested, 3.5% active; AID 1490; active means well fitted inhibition curve with a large enough effect; inconclusive means small, poorly fitted or top-dose-only effect, or another doubt; inactive means no such curve, though single readings can be large or run the other way;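 further: the enzyme is Sfp with the accession as filed and its product quenches rhodamine fluorescence; potency means the concentration at half of the fitted maximal effect; 0% = enzyme reaction without inhibitor and -100% = no enzyme wells; top concentration of the series not given in the record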
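Reaction rates are the 30-min fluorescence difference (ex 525, em 598 nm) in wells containing 15 nM Sfp, 5 uM rhodamine-CoA and 12.5 uM BHQ-2-YbbR at pH 7.6 with 10 mM MgCl2.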
ClpP mod: qHTS Assay for Activators of ClpP. ATP-dependent Clp protease proteolytic subunit (Bacillus subtilis (strain 168)), P80244. purified B. subtilis ClpP, FRET peptide cleavage, 20 min. Potency, µM (doses to about 57.5 µM), without a hit: at the highest dose activity change, negative = active. 340,000 tested, 1.9% active. AID 651965, 2013; active = well fitted falling curve with a large enough effect; inconclusive = small, poorly fitted or top-dose-only effect; inactive = no such curve, though single readings can be large or run the other way; further: potency means the concentration at half of the fitted maximal effect; the source files actives as falling curves though it sought activators and does not explain the sign; nearly all actives have a fitted effect of over 65% in size; many hits overshoot -100%
Target sequence (P80244 whole entry, looked up): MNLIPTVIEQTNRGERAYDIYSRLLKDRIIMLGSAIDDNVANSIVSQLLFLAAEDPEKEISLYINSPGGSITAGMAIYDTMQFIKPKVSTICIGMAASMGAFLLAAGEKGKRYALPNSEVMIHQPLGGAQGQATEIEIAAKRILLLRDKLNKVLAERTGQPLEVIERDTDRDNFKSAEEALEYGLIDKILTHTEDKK
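ClpP 10 microg/mL final, pH 8 Tris/KCl buffer with BSA, glycerol, Tween-20; compound pinned in; FRET-FV substrate; RT 20 min; Ex320/Em430; ΔFRET vs ADEP 5.8 microM, DMSO, no enzyme.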
gsp antag: antagonists of gsp mutant (McCune-Albright syndrome); gsp-mutant cells, cAMP HTRF, 30 min; control for the full effect not named in the record; Potency, µM (titrated, usually from 76.9 µM), inactives show at the top dose activity change, negative = inhibition, most hits filed as inhibitors; 340,000 tested, 0.4% active; active = falling curve of any shape with a large fitted effect; inconclusive = falling curve, mostly with a smaller effect; inactive = flat or rising curve; cell line not stated here;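 further: intracellular cAMP measured with PDE inhibitor Ro 20-1724 present during compound exposure; potency means the concentration at half of the fitted maximal effect; on the % scale 0 is the no-effect control and ±100 the full control effect; nearly all actives have a fitted effect of over 65% in size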
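Measurement of cellular cAMP by homogeneous time-resolved fluorescence following a 30 min compound exposure at 37C. The PDE inhibitor […] was present throughout; the assay buffer was DPBS with 0.05% BSA and 0.005% Tween 20.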
CtBP-E1A inh: inhibitors of CtBP/E1A interaction. AlphaScreen GST-E1A/His-CtBP binding, 1536-well; hits give low values; control for the full effect not named in the record. activity change, % (concentration not given with the values). 340,000 tested, 0.49% active. AID 651724; in the data active means activity change below about -65%; inconclusive means about -30% to -65%; inactive means above about -30%; further: on the % scale 0 is the no-effect control and ±100 the full control effect
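GST-E1A and His-tagged CtBP (125 nM each as 5X stock) were preincubated with pin-transferred compound for 2 h at 37 °C in the dark, then glutathione donor and nickel acceptor beads were added for 1 h before AlphaScreen reading.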
An asterisk follows results filed as active; u = inconclusive; x = no result given; [ ] = remark or other dose. Not a hit list; 5.3% or so of the library scored in one or more.

Structure,gsp agonist,Menin-MLL FL inh,TRPV1 potentiator,Sfp PPTase inh,ClpP mod,gsp antag,CtBP-E1A inh
CC1(C)CC[C@]2(C(=O)O)[C@H](O)C[C@]3(C)C(=CCC4[C@@]5(C)C[C@H](O)[C@H](O)[C@@](C)(CO)C5CC[C@]43C)[C@@H]2C1 (some centres undefined),0%,x,-15,x,-2.2%,-14%,4
Cc1ccc(NC(=O)C2CCCN2C(=O)NC2CCCCC2)cc1F (centres undefined),13%,3.4,5,17%,x,7%,15
CCc1nc(OCCN(CC)CC)c2oc3ccccc3c2n1,21%,3.8,-2,21%,-3.6%,8%,-2
OC(CN1CCCCC1)Cn1c2ccccc2c2ccccc21 (centres undefined),3%,0.7,9,1%,-16%,2%,x
CC1CCCC(C)N1c1nnc(NC(=O)Cn2c(=O)oc3ccccc32)s1 (centres undefined),-12%,-2.0,28,4%,-3.1%,-6%,-3
NS(=O)(=O)c1ccc(CCNc2ncnc3sccc23)cc1,-39%[inhibitor],2.7,3,-1%,-4.0%,-10%,-6
O=C(c1ccc(Cl)cc1)N1CCN(c2ccc(F)cc2)CC1,4%,3.2,-41,-6%,1.3%,-1%,15
Cc1c(NC(=O)COc2cccc(Br)c2)c(=O)n(-c2ccccc2)n1C,u,-6.8,6,1%,x,9%,-11
CC(C)[C@H](NS(=O)(=O)c1ccccc1)C(=O)Nc1nccs1,-11%[15.4 µM],x,x,x,-0.4%,11%,-4
CSCCC(NS(=O)(=O)c1ccc(F)cc1)C(=O)NCc1ccc(S(N)(=O)=O)cc1 (centres undefined),-1%,3.4,10,12%,-0.9%,3%,x
O=S(=O)(CCC1CCCCN1)c1ccccc1 (centres undefined),-21%,3.4,1,13%,x,10%,6
Cc1ccccc1-n1c(=O)n(Cc2ccc(C(=O)O)cc2)c(=O)c2[nH]cnc21,-2%[15.4 µM],-0.6,-10,4%,0.5%,15%,9
CC(C)(C)n1ncc2c(=O)n(CC(=O)N3CCCCCC3)cnc21,0%,2.9,-9,12%,0.4%,6%,0
O=C1COc2ccc(C(=O)COC(=O)CNS(=O)(=O)c3cccc(F)c3)cc2N1,17%,x,0,x,-1.9%,1%,3
O=C(Nc1ccc(C(=O)O)cc1)Nc1ccc(F)cc1F,3%,-4.4,-9,15%,x,9%,7
N#CNC(=Nc1ccccc1)SCc1ccc(C(=O)O)cc1,5%[15.4 µM],0.0,8,16%,x,8%,x
O=C(O)CC(CC(=O)Nc1ccc(-n2ccc(C(F)(F)F)n2)cc1)c1ccccc1 (centres undefined),-17%,1.1,-3,15%,x,1%,7
CC(=O)CSc1nc2c(c(=O)[nH]c(=O)n2C)n1CCCc1ccccc1,-39%[inhibitor],5.5,7,-10%,x,6%,5
Cc1cc(/C=C2\SC(=Nc3ccccc3)NC2=O)c(C)n1-c1ccc(S(N)(=O)=O)cc1,2%,u,6,-8%,-4.1%,0%,-24
Cc1ccc(NS(=O)(=O)c2ccc(N/N=C/c3ccncc3)c([N+](=O)[O-])c2)c(C)c1,-2%,-1.7,2,-26%,-3.1%,7%,2
Oc1c(CN2CCOCC2)cc(-c2ccccc2)cc1CN1CCOCC1,u,1.7,x,10%,1.3%,8%,-2
Cc1ccc(S(=O)(=O)N2CCN(S(=O)(=O)c3ccc(C)cc3)C3OCCOC32)cc1 (centres undefined),-1%,2.8,22,5%,-7.4%,-2%,-4
COC(=O)CCCCCN1C(=O)NC(C2CC2)C(C(=O)OCc2ccccc2)=C1C (centres undefined),-1%,x,x,x,1.7%,-29%,x
Cc1nc(-c2ccc(F)cc2)c(CC(=O)N(C)CC(=O)Nc2ccc(F)cc2)s1,0%,x,8,x,-0.8%,1%,-1
COC(=O)CSc1nnc(CNC(=O)c2cc(OC)cc(OC)c2)n1-c1ccc(F)cc1,21%[15.4 µM],3.1,-1,9%,x,-45%,-13
Cc1cc2nc(-c3ccc(SCC(=O)N4CCOCC4)nc3)[nH]c2cc1C,1%,16,x,10%,3.2µM*,-9%,0
COc1ccc(NC(=O)c2ccc(-c3ccccc3Cl)o2)cc1,-14%,4.5,1,17%,236%,-16%,-3
CC1(C)CC(=O)C2=C(C1)OC(/N=C/N1CCCC1)=C(C#N)C2c1ccccc1 (centres undefined),-20%[15.4 µM],-0.4,-34,15%,0.4%,4%,-10
CSC1=N/C(=C\c2ccccc2Cl)C(=O)N1N(C)C,-10%,2.4,-29,-15%,1.6%,3%,4
COc1ccc(-c2noc(CN(C)Cc3ccccc3)n2)c(OC)c1OC,u,1.1,2,12%,-1.1%,0%,-3
O=C(CSc1ccc(F)cc1)NCC1(N2CCOCC2)CCCCC1,25%,x,-17,x,-0.2%,-10%,4
COc1ccc(OC)c(C(C)NC(=S)NC2CCCCC2)c1 (centres undefined),-19%,-1.8,4,-2%,-1.2%,-9%,-9
Cc1ccc(C2CC(C(F)(F)F)n3nc(C(=O)NCc4c(C)nn(C)c4C)c(Cl)c3N2)cc1 (centres undefined),-35%[inhibitor],2.2,27,-1%,1.8%,u,-4
CCOC(=O)[C@H]1[C@H]2COc3ccc(C)cc3[C@@H]2N2C(=O)c3cc(F)c(F)cc3NC(=O)[C@@]12C,-44%[inhibitor],x,5,x,-4.7%,-6%,-20
CCCN1CCC(NC(=O)Nc2ccc(F)cc2F)CC1,27%,1.3,-2,10%,2.4%,19%,5
Cc1cc2c(sc3c(C)ccc(C)c32)c(C)n1,2%[15.4 µM],2.6,-3,-7%,x,3%,-4
CCC(C)C(N)C1=NC(C(=O)N[C@@H](CC(C)C)C(=O)N[C@H](CCC(=O)[O-])C(=O)N[C@H](C(=O)N[C@H]2CCCCNC(=O)[C@H](CC(N)=O)NC(=O)[C@@H](CC(=O)[O-])NC(=O)[C@H](Cc3cnc[nH]3)NC(=O)[C@@H](Cc3ccccc3)NC(=O)[C@H]([C@@H](C)CC)NC(=O)[C@@H](CCCN)NC2=O)[C@@H](C)CC)CS1.[Zn+2] (some centres undefined),x,x,x,x,-2.0%,4%,2
C[C@]12C(=O)N(c3cccc(F)c3)C(=O)N1[C@@H]1c3ccccc3OC[C@@H]1[C@H]2c1ccccc1,-1%,2.2,-15,7%,1.4%,-9%,-3
Cc1ccccc1CN1CCN(CCCc2ccccc2)C(CCO)C1 (centres undefined),-18%,-0.5,17,9%,x,7%,-4
O=C(CCN1CCN(CCO)CC1)Nc1cccc(Br)c1,-8%[15.4 µM],0.6,22,10%,x,2%,6
Cc1nc(-c2ccc(NC(=O)c3ccccc3C)cc2)cs1,-12%[15.4 µM],-1.2,6,7%,x,u,23
CCOC(=O)C1C(=O)OC2(CCOC(C)(C)C2)C1C(=O)OCC (centres undefined),26%,2.6,-5,16%,-0.4%,6%,-3
COc1ccc(-n2nc3c(c2NC(=O)C24CC5CC(CC(C5)C2)C4)CS(=O)C3)cc1 (centres undefined),-56%,-1.8,3,-13%,-1.7%,-7%,4
COc1ccc(CNCC(O)(c2ccc(Cl)cc2)c2ccc(Cl)cc2)cc1,5%,-2.2,30,-21%,-0.2%,6%,12
COc1ccccc1CN1C(=NC(=O)CCC2CCCC2)SC2CS(=O)(=O)CC21 (centres undefined),u,x,-4,9%,-0.6%,5%,6
COC(=O)c1cccc(NC(=O)CN2CCc3ccccc3C2)c1,21%,0.0,-12,16%,-0.5%,4%,4
Cc1ccc(N2CC(C(=O)N3CCC4(CC3)CC(=O)c3ccccc3O4)CC2=O)cc1C (centres undefined),u,x,-11,x,28µM*,-18%,-3
CC(C)OC(=O)c1c(N)n(CCCN2CCOCC2)c2nc3ccccc3nc12,-2%,1.3,-12,-6%,u,-2%,-12
Cc1ccc(NC(=O)CN(C)S(=O)(=O)c2cccc3cccnc23)cc1,u,4.3,9,17%,0.9%,-21%,-2
N#Cc1c(NC(=O)CSc2nc(N)cc(=O)[nH]2)sc2c1CCCCCC2,-45%[inhibitor],2.9,9,22%,-0.3%,1%,1
O=C(/C=C/c1ccc(F)cc1)N1CCN(c2ccccn2)CC1,-16%,-5.0,-19,0%,-1.9%,8%,-8
CNC(=O)CSc1nnc(C(C)C)n1C,4%[15.4 µM],4.1,13,10%,20%,0%,3
CCNC(=O)N1C(CC(=O)OCC)C(=O)NC2CCCCC21 (centres undefined),10%,2.9,5,14%,9.1%,3%,11
CC(=O)Nc1ccc(S(=O)(=O)N(C)CC(=O)NNC(=O)c2cccs2)cc1,0%,x,x,x,-0.8%,12%,x
Oc1oc(-c2ccccc2)nc1C=Nc1cccc2ccccc12,1%,u,-10,-6%,6.5%,-6%,10
COCCN(C(=O)C1CC(=O)N(Cc2ccc(C)cc2)C1)c1c(N)n(CC(C)C)c(=O)[nH]c1=O (centres undefined),-2%,x,9,x,0.3%,17%,u
CSc1ccc(S(=O)(=O)Nc2ccccc2C(=O)N2CCOCC2)cc1,-34%[inhibitor],x,-11,17%,-3.2%,5%,-28
CCCCn1c2ccc(F)cc2c2nnc(SCCN3CCOCC3)nc21,2%[15.4 µM],-1.1,-7,56µM*,1.3%,28%,-7
CN(CC(=O)Nc1cc(Cl)ccc1C#N)C1CCS(=O)(=O)C1 (centres undefined),28%,x,22,x,0.0%,6%,1
COc1ccc(NC(=O)C2CCC(=O)N2S(=O)(=O)c2ccc(C)cc2)cc1Cl (centres undefined),-4%[15.4 µM],-5.9,-10,7%,x,-1%,6
COC(=O)c1cc(F)c(-n2cncn2)c(F)c1,13%,3.3,x,12%,-0.5%,-8%,5
CCOC(=O)C1=C(O)C(=O)N(CCCn2ccnc2)C1c1ccc(C)cc1 (centres undefined),-8%[15.4 µM],3.2,u,8%,x,6%,3
